Source: PubChem BioAssay (National Center for Advancing Translational Sciences (NCATS))
Sfp PPTase inh = Sfp phosphopantetheinyl transferase inhibition | Potency, µM, without a hit: max response, negative = inhibition, most hits filed as inhibitors | Q9F4F7 | AID 1490 | Biochemical Sfp PPTase activity, qHTS | actives 3.5% (n = 310,000); active = well fitted inhibition curve with a large enough effect; inconclusive = small, poorly fitted or top-dose-only effect, or another doubt; inactive = no such curve, though single readings can be large or run the other way;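 note: the enzyme is Sfp with the accession as filed and its product quenches rhodamine fluorescence; potency is the fitted concentration of half-maximal effect; 0% = enzyme reaction without inhibitor and -100% = no enzyme wells; top concentration of the series not given in the record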
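Reaction rates are the 30-min fluorescence difference (ex 525, em 598 nm) in wells containing 15 nM Sfp, 5 uM rhodamine-CoA and 12.5 uM BHQ-2-YbbR at pH 7.6 with 10 mM MgCl2.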
D2 PAM = potentiates the human D2 dopamine receptor allosterically; P14416; DiscoveRx D2 beta-arrestin cells, luminescence, 90 min; 100% = 57 uM dopamine signal; potentiation, % (concentration not given with the values); actives 0.23% (n = 360,000); active = potentiation of 50% or more; inconclusive = 30% to 50%; inactive = 30% or less;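 note: compound concentration not given in the record; tested on top of an EC20 dose of dopamine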
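PathHunter D2 cells, attached overnight at 37 deg C, received compound in DMSO plus dopamine at EC20 (50 nM final) for 90 min at 37 deg C. Beta-arrestin recruitment was read as luminescence after 1 h with detection reagent at ambient temperature.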
Menin-MLL FL inh = menin-MLL binding inhibition, fluorescein peptide | Fluorescence polarization, fluorescein-MLL peptide displacement from menin | FP activity change, % at 61.4 µM | 290,000 tested, under 10 active | AID 1766; inconclusive = falling polarisation curve, or a change in total fluorescence; inactive = total fluorescence flat and polarisation flat or rising; no compound was filed as active; the % refers to the polarisation; negative = inhibition;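 note: % of control where 0% means no effect; inhibitors lower the polarisation; unlabelled MLL peptide was the positive control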
gsp antagonist = antagonizes gsp, the McCune-Albright syndrome mutation; actives 0.4% (n = 340,000); gsp-mutant cells, cAMP HTRF, 30 min; control for the full effect not named in the record; Potency, µM (highest dose often 76.9 µM), for inactives: at the top dose activity change, negative = inhibition, actives largely listed as inhibitors; AID 624288; active = falling curve of any shape with a large fitted effect; inconclusive = falling curve, mostly with a smaller effect; inactive = flat or rising curve; cell line not stated here;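 note: intracellular cAMP measured with PDE inhibitor Ro 20-1724 present during compound exposure; potency is the fitted concentration of half-maximal effect; % is set by controls: 0 for no effect and ±100 for the full control effect; nearly all actives have a fitted effect of over 65% in size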
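G418-selected cells were plated in DMEM/10% FBS for 16-24 h at 37C, then treated with compounds plus the PDE inhibitor […] (300 uM solution added) for 30 min at 37C. Intracellular cAMP was measured by HTRF after 30 min lysis at room temperature.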
gsp agonist = gsp mutant agonism | gsp mutant cells, cAMP HTRF, 30 min; control for the full effect not named in the record | Potency, µM (doses to about 76.9 µM), inactives show top-dose activation (cAMP increase), actives largely listed as activators | actives 0.13% (n = 340,000) | AID 624287; active = well fitted activation curve with a large enough effect; inconclusive = small, poorly fitted or top-dose-only effect, or another doubt; inactive = no such curve, though single readings can be large or run the other way; cell line not stated here;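 note: phosphodiesterase inhibitor Ro 20-1724 added with compounds to block cAMP breakdown; potency is the fitted concentration of half-maximal effect; nearly all actives have a fitted effect of over 60% in size; about a fifth of the inactives were tested at one dose only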
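Cells stably selected in G418 were plated at 2000/well, grown 16-24 hr, then given compounds in DMSO with the PDE inhibitor […] (300 uM solution added) for 30 min at 37C; cAMP was read by HTRF.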
TRPV1 PAM = potentiators of human vanilloid receptor 1 (TRPV1) | Q8NER1 | TRPV1-expressing cells, Fluo-8 calcium influx, capsaicin EC20 potentiation; host cell line not named in the record; control for the full effect not named in the record | potentiation, % at 8.33 µM | actives 0.02% (n = 320,000); active means potentiation above 80%; inconclusive means 30% to 80%; inactive means below 30%; note: 0% is about no effect
Target sequence (Q8NER1 whole entry, looked up): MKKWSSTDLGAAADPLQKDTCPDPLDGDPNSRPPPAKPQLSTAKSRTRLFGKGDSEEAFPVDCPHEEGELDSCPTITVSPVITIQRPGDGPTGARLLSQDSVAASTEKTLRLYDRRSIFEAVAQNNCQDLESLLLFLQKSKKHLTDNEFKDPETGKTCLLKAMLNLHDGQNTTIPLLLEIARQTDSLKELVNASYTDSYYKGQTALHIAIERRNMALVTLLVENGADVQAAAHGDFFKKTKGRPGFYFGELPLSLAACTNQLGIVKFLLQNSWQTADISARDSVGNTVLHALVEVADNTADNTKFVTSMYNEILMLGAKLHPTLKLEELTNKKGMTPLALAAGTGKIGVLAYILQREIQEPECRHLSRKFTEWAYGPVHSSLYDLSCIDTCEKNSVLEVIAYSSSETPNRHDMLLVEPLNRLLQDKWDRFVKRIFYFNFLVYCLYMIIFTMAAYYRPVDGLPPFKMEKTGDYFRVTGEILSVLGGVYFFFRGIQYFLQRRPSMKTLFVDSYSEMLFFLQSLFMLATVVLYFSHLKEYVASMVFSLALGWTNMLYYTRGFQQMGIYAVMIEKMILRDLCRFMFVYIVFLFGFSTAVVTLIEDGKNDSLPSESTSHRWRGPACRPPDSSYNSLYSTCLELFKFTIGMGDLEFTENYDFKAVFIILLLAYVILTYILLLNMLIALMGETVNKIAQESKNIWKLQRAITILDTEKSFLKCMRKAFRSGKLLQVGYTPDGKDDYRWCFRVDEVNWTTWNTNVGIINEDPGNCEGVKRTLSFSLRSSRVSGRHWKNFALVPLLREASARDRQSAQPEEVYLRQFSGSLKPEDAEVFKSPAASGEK
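Fluo-8 calcium influx in TRPV1-expressing cells, kinetic read (ex 480/em 520 nm). Compound added and read 3 min for agonist activity, followed by capsaicin at EC20 final and 2 min further read for enhancement.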
ClpP mod = qHTS Assay for Activators of ClpP; Potency, µM (highest dose often 57.5 µM), for the others: at the highest dose activity change, negative = active; purified B. subtilis ClpP, FRET peptide cleavage, 20 min; ATP-dependent Clp protease proteolytic subunit (Bacillus subtilis (strain 168)), P80244; actives 1.9% (n = 340,000); active = well fitted falling curve with a large enough effect; inconclusive = small, poorly fitted or top-dose-only effect; inactive = no such curve, though single readings can be large or run the other way; note: potency is the fitted concentration of half-maximal effect; the source files actives as falling curves though it sought activators and does not explain the sign; nearly all actives have a fitted effect of over 65% in size; many hits overshoot -100%
Target sequence (P80244 whole entry, looked up): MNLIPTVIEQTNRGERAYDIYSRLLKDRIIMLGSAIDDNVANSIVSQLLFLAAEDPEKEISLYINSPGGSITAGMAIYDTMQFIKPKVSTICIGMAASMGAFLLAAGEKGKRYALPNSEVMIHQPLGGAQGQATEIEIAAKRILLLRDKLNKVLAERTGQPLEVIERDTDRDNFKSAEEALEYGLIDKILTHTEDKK
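Buffer: 100 mM Tris/HCl pH8, 100 mM KCl, 0.05% low protease BSA, 2.5% glycerol, 0.01% Tween-20. ClpP 10 microg/mL final; 20 min RT; delta FRET normalized to ADEP and DMSO controls.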
* hit, by the source's call; ? = inconclusive; nt = not tested or not shown; & = joins results of further samples; [ ] = remark or other dose. Compounds were not picked by outcome. Share with any hit: about 5.1%.

SMILES	Sfp PPTase inh	D2 PAM	Menin-MLL FL inh	gsp antagonist	gsp agonist	TRPV1 PAM	ClpP mod
CCOC(=O)/C=C/C(=O)NNC(=O)c1ccccc1Cl	15%	-1	-3.1	-5%	17%	2	-0.7%
COc1ccc(COC(=O)N/N=C(\C)CC(=O)NCc2ccc(Cl)cc2)cc1	17%	-1	0.7	6%	-10%[15.4 µM]	?	nt
O=C(COC(=O)/C=C/c1ccccc1[N+](=O)[O-])Nc1ccc(OC(F)F)cc1	12%	-7	6.9	-5%	3%	-9	-1.0%
O=C(COC(=O)c1cc(S(=O)(=O)N2CCCCC2)ccc1N1CCOCC1)c1ccc(F)cc1	nt	-31	nt	-7%	-3%[15.4 µM]	19	nt
Cc1ccc(C)c(OCC(=O)NCCN(C)C)c1	9%	-22	-1.0	-2%[15.4 µM]	5%	0	-1.1%
CC(C)(c1ccccc1)c1ccc(OCC(O)CN2CCCC2)cc1 (stereo not given)	-11%	-10	-9.6	13%	-42%[inhibitor]	6	nt
O=C(NC1CC1)C1CCN(C2CCN(C(=O)/C=C/c3cccs3)CC2)CC1	8%	-9	-0.6	5%	-1%	-3	nt
CCCCN(CC)CCCNC(=O)c1cc2cc3ccc(OC)cc3nc2o1	10%	-40	1.5	16%	13%	13	38%
Cc1ccc(S(=O)(=O)N2CCN(CC(=O)N/N=C/c3ccco3)CC2)cc1	8%	-6	3.6	7%	0%	-4	-2.0%
Nc1c(C(=O)Nc2ccc3c(c2)OCCO3)nnn1Cc1cccc(F)c1	nt	-6	nt	7%	-28%[15.4 µM]	4	nt
COCCCN(C(=S)Nc1c(C)cc(C)cc1C)C(C)c1ccccn1 (stereo not given)	22µM*	-10	1.8	10%	-8%[15.4 µM]	3	nt
COc1cc(NC(=O)C2CC(c3cccc(OC)c3OC)=NO2)cc(OC)c1OC (stereo not given)	-25%	13	5.2	-39%	?	13	0.7%
CC(=O)c1ccc(NC(=O)COC(=O)c2ccc(F)cc2F)cc1	17%	-1	-3.3	nt	-3%[15.4 µM]	?	nt
Cn1c(N)c(C(=O)COC(=O)c2cncc(Br)c2)c(=O)n(C)c1=O	-2%	-2	-2.2	-6%	19%[15.4 µM]	9	nt
N#Cc1c(-c2ccccc2Cl)cc(C2CC2)nc1N	2%	-24	2.4	9%	8%	-12	?
O=C(CCN1C(=O)c2cccc3cccc(c23)C1=O)NCC1CCCO1 (stereo not given)	1%	-2	5.8	8%	27%[15.4 µM]	3	nt
Cn1c(Cl)c(/C=N/OC(=O)c2ccc(Cl)cc2)c2ccccc21	-8%	-2	1.6	4%	-70%[inhibitor]	8	-7.1%
Cc1ccc(C(=O)C2=C(O)C(=O)N(CCCN3CCOCC3)C23C(=O)N(C)c2ccccc23)o1 (stereo not given)	8%	-15	1.3	19%	4%	12	0.2%
O=C(NN=C1C2CC3CC1CC(Cl)(C3)C2)c1cccs1	-6%	-11	0.4	11%	-3%[15.4 µM]	-40	nt
COc1ccc(OC)c2nc(-c3cccnc3)ccc12	17%	-7	-2.0	2%	-6%[15.4 µM]	6	-1.1%
CC(=O)Nc1ccccc1NS(=O)(=O)c1ccccc1[N+](=O)[O-]	-8%	-4	1.4	-15%	-29%	9&-8	0.1%
Cn1nc(-c2ccccc2)c(-c2nc(-c3cccc(Cl)c3)no2)c1Cl	6%	-7	-1.3	-12%	-2%	7	0.7%
COC(=O)c1cc(OC)c(OC)cc1NC(=S)N1CCCC(CO)C1 (stereo not given)	10%	-9	2.5	-1%	-29%	-2	2.1%
CC(=O)c1ccc(-c2ccc(C(=O)N3CCC(C(N)=O)CC3)o2)cc1	nt	-12	nt	6%	-52%	12	?
Nc1nc(NCc2ccccc2)nc(NCCO)c1[N+](=O)[O-]	17%	-9	2.4	7%	27%	0	0.3%
COCc1cc(C)nc(Nc2ccc(C)c(C)c2)c1C#N	8%	-6	1.9	23%	-3%	-12	-16%
O=C(CCCCn1c(=S)[nH]c2ccsc2c1=O)NCc1ccc2c(c1)OCO2	-14%	-12	-5.0	-32%	13%[15.4 µM]	11	nt
COCOc1ccc(C=O)c(O)c1	nt	-32	nt	1%	nt	nt	-6.1%
CCN(CC)c1ccc(N/C(N)=N/c2nc(C(F)(F)F)cc(=O)[nH]2)cc1	3%	-8	1.7	-2%	-17%	-7	nt
CCc1ccc2c(CSc3nnnn3C)cc(=O)oc2c1	16%	0	0.0	-21%	3%	-2	-6.1%
O=C(COC(=O)Cc1ccccc1F)NNC(=O)c1ccc([N+](=O)[O-])cc1	nt	-13	nt	-1%	-12%[15.4 µM]	2	nt
CCSc1ncc(Cl)c(C(=O)Nc2ccc(S(=O)(=O)Nc3ncccn3)cc2)n1	6%	-2	nt	1%	?	23	0.1%&-2.5%
O=C1CCC(C(=O)N2CCCCO2)CN1CCc1ccc(Cl)cc1 (stereo not given)	8%	-17	nt	2%	-2%	-8	1.3%
Cc1cccnc1NC(=O)C12CCC(C)(C(=O)O1)C2(C)C (stereo not given)	-6%	-11	0.5	9%	?	-1	0.3%
Fc1ccccc1CSc1nnc(-c2cccnc2)o1	20%	13	0.8	16%	-2%	1	-2.2%
CCN(CC)C(=O)Cn1cc(C(=O)C(=O)N2CCN(C)CC2)c2ccccc21	-1%	4	-4.1	6%	-6%	-3	-2.4%
COc1ccccc1C(=O)NCCC(=O)NC(C)c1ccc(-n2ccnc2)cc1 (stereo not given)	nt	-15	nt	0%	-6%	-9	1.2%
Cc1cc(C)c(C#N)c(SCc2ccc(C(=O)O)cc2)n1	-1%	1	-1.0	40µM*	-3%	-3	nt
Cc1cccc(N2CCN(C(=O)c3c(C)nn(Cc4ccccc4Cl)c3C)CC2)c1C	-8%	-19	10	-19%	-36%[inhibitor]	6	-3.5%
O=S(=O)(Nc1cccc(Oc2cnccn2)c1)c1ccc(F)cc1	13%	-2	0.7	3%	0%[15.4 µM]	7	nt
Cc1ccc(NC(=O)Nc2cc(S(C)(=O)=O)ccc2Cl)cc1	-8%	-12	-3.7	1%	-11%[15.4 µM]	-4	nt
Sc1oc(-c2ccccc2)cc1C=Nc1ccccc1	-15%	-8	6.0	-15%	-9%	-8	0.5%
Cc1c(NC(=O)CN2C(=O)NC(CCc3ccccc3)C2=O)c(=O)n(-c2ccccc2)n1C (stereo not given)	11%	-3	2.3	16%	-16%	24	0.3%
CCCCCC(=O)c1ccc(O)cc1O	12%	-11	2.8	6%	?	1	nt
CCCCN(C(=O)c1ccc(N2CCCC2=O)cc1)c1c(N)n(Cc2ccccc2)c(=O)[nH]c1=O	nt	29	nt	7%	8%	-1	-3.5%
Fc1ccc(C2CC(c3cccs3)=NN2c2ccccc2)cc1 (stereo not given)	3%	-5	4.3	-14%	15%[15.4 µM]	15	nt
CS(=O)(=O)Cc1ccc(C(=O)NC2CCCc3ccccc32)cc1 (stereo not given)	8%	-3	-4.6	4%	-10%	1	nt
CCCCC(=O)N1CC(=O)Nc2ccc(F)cc2C1c1ccccc1 (stereo not given)	11%	4	-19	1%	-1%	?	nt
COc1ccc(-c2nn(-c3ccccc3)cc2/C=N/NC(N)=S)cc1OC	7%	-6	4.5	11%	15%	9	-5.6%
CC1C(c2ccccc2)=[N+]([O-])C2(CCCCC2)N1O (stereo not given)	8%	4	-0.3	-1%	0%	-13	-2.5%
COc1ccc(N(CC(=O)Nc2cc(Cl)ccc2C)S(=O)(=O)c2c(C)noc2C)cc1	11%	-17	nt	-7%	3%	-4	-0.7%&3.6%
O=C(CN(CCc1ccccc1)S(=O)(=O)c1ccc(Cl)cc1)N/N=C/c1ccccc1C(=O)O	20%	-6	-0.8	6%	-44%[inhibitor]	18	-2.5%
CC(C)(O)CCCC(C)(O)c1ccc(C(=O)O)cc1O (stereo not given)	-3%	-10	?	3%	nt	-5	-15%
COc1cc2cc(C(=O)NCCc3ccccc3)[nH]c2cc1OC	9%	-11	7.9	-4%	-2%[15.4 µM]	9	0.7%
Cn1nc(C(=O)Nc2ccc3c(c2)OCCO3)c2ccccc2c1=O	nt	-2	nt	6%	4%	13	0.7%
COc1ccc2oc(C(=O)OCC(=O)c3ccc4c(c3)OCCO4)c(C)c2c1	-12%	-3	0.3	-20%	9%	-8	-21%
NS(=O)(=O)c1ccc(NC(=O)Cn2ncc3c2-c2ccccc2OC3)cc1	8%	0	4.3	0%	?	?	-4.0%
O=C(COC(=O)c1cccs1)NC12CC3CC(CC(C3)C1)C2	-3%	0	-0.9	1%	?	-18	nt
COc1cc(CCC(=O)Nc2cc(C)cc(C)c2)cc(OC)c1OC	-8%	0	-3.9	0%	-1%[15.4 µM]	-17	nt

Exported with values under each structure: part of the list above
Every second line gives: Sfp PPTase inh | D2 PAM | Menin-MLL FL inh | gsp antagonist | gsp agonist | TRPV1 PAM | ClpP mod
COc1ccc(N(CC(=O)Nc2cc(Cl)ccc2C)S(=O)(=O)c2c(C)noc2C)cc1
 : 11% | -17 | nt | -7% | 3% | -4 | -0.7%&3.6%
O=C(CN(CCc1ccccc1)S(=O)(=O)c1ccc(Cl)cc1)N/N=C/c1ccccc1C(=O)O
 : 20% | -6 | -0.8 | 6% | -44%[inhibitor] | 18 | -2.5%
CC(C)(O)CCCC(C)(O)c1ccc(C(=O)O)cc1O (stereo not given)
 : -3% | -10 | ? | 3% | nt | -5 | -15%
COc1cc2cc(C(=O)NCCc3ccccc3)[nH]c2cc1OC
 : 9% | -11 | 7.9 | -4% | -2%[15.4 µM] | 9 | 0.7%
Cn1nc(C(=O)Nc2ccc3c(c2)OCCO3)c2ccccc2c1=O
 : nt | -2 | nt | 6% | 4% | 13 | 0.7%
COc1ccc2oc(C(=O)OCC(=O)c3ccc4c(c3)OCCO4)c(C)c2c1
 : -12% | -3 | 0.3 | -20% | 9% | -8 | -21%
NS(=O)(=O)c1ccc(NC(=O)Cn2ncc3c2-c2ccccc2OC3)cc1
 : 8% | 0 | 4.3 | 0% | ? | ? | -4.0%
